Screening data as filed in PubChem.
Rango complex inh = prevents formation of the Rango-importin beta complex; Potency, µM (titrated, usually from 92.2 µM), for inactives: at the top dose inhibition of complex formation; Q14974; 0.031% of 340,000 active; Rango CFP/YFP FRET sensor + importin beta, 45 min; AID 540263; active = rising FRET ratio curve, often small or poorly fitted; inconclusive = mostly compound fluorescence or quenching in the first reads; inactive = flat curves in all reads;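 also: potency is read from the fitted curve at half-maximal effect; 0% = DMSO wells and 100% = buffer wells lacking importin beta; nearly all actives have a fitted effect of over 15% in size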
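FRET biosensor (snurportin 1 IBB flanked by EYFP and cerulean), 50 nM, with compound 5 min, then 0.125 microM importin beta in PBS, 1 mM DTT, 0.02% Tween-20, 0.1% BSA. CFP/YFP ratio read after 45 min at room temperature; pre-read flags interference.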
miR-21 reporter = miR-21 reporter, rising signal | HeLa miR-21 FLuc reporter, luciferase, 48 h | Potency, µM (top dose mostly 38.3 µM), inactives show at the top dose reporter change, positive = more light | AID 2288 | 340,000 tested, under 10 active; active = well fitted rising curve with a large enough effect; inconclusive = small, poorly fitted or top-dose-only effect; inactive = no such curve, though single readings can be large or run the other way;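 also: % of control where 0% means no effect; miR-21 action dims this reporter so a rising signal means less miR-21 action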
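HeLa cells stably expressing CMV-driven firefly luciferase with a downstream miR-21 binding sequence, endogenously expressing miR-21, were treated with titrations (up to about 40uM final) for 48 hours at 37 degree Celsius. Luciferase luminescence was read after lysis.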
GLA inh pH 4.5 = inhibitors of human alpha-galactosidase A at pH 4.5. activity change, negative = inhibition, % at 105 µM. AID 1467. purified enzyme, 4-MU-alpha-Gal fluorescence, pH 4.5. 230,000 tested, under 10 active. P06280; inconclusive = small, poorly fitted or top-dose-only inhibition, or a rising curve; inactive = flat fitted curve, though single readings scatter; no compound was filed as active;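 also: 0% = full activity with enzyme and -100% = basal without enzyme; dose as in the result columns while the protocol names 77 µM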
Target sequence (P06280 whole entry, looked up): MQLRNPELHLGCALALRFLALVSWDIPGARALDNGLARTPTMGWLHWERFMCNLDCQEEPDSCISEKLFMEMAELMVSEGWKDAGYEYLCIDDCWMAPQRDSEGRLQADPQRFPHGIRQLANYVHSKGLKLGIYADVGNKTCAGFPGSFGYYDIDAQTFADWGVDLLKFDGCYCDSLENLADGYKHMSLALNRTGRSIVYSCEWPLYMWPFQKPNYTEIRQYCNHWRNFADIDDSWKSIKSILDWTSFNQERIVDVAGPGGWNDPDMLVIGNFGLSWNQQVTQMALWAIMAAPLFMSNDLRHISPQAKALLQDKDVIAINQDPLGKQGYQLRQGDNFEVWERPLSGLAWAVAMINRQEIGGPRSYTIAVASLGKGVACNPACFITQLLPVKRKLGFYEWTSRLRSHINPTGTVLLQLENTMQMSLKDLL
Rango dissoc inh = prevents RanGTP from dissociating the Rango-importin beta complex | O95149+P62826 | Biochemical FRET Rango-importin beta, RanGTP-induced dissociation | Potency, µM (doses to about 46.1 µM), without a hit: at the highest dose activity change, negative = inhibition | 0.071% of 340,000 active | AID 540253; active means falling FRET ratio curve, often poorly fitted, with flat reads before Ran was added; inconclusive means other falling curves, or compound fluorescence or quenching; inactive means flat or rising ratio curve;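 also: potency is read from the fitted curve at half-maximal effect; % of control where 0% means no effect; nearly all actives have a fitted effect of over 45% in size; -100% = wells without RanGTP and RCC1; the record marks most hits as doubtful in a second field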
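Compounds sat 5 min at room temperature with 0.1 uM Rango biosensor plus 0.25 uM importin beta, then FRET pre-read. RanGTP-RCC1 (0.6 uM Ran, 2mM GTP, 0.2 uM RCC1) added for 45 min, and the CFP/YFP post-read measured blocked complex dissociation.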
The depositor's hits bear a star; u = inconclusive; x = not tested or not shown. Only part of the results is shown; count on the stated rates, not on these rows.

SMILES	Rango complex inh	miR-21 reporter	GLA inh pH 4.5	Rango dissoc inh
Cc1ccc(C)c(S(=O)(=O)n2cnc3ccccc32)c1	-3.4%	-2.3%	1.3	0.7%
CCOC(=O)c1cnc(-c2ccccc2)nc1Oc1ccc(Cl)cc1	1.7%	-1.1%	-5.2	-0.2%
CC(C)C(=O)NCC(c1ccc2c(c1)OCO2)N1CCOCC1 (stereo not given)	-2.6%	-2.8%	x	6.9%
CC1(C)CC(=O)C(C=NCCN2CCN(C(=S)NC3CCCCC3)CC2)=C(O)C1	-0.6%	0.1%	-9.2	-6.6%
Cc1ccc(NC2=NC(C(=O)Nc3ccc(C)c(C)c3)CC(=O)N2)cc1 (stereo not given)	-1.0%	-4.1%	1.2	-5.7%
O=C(Cn1cnc2cc([N+](=O)[O-])ccc2c1=O)Nc1cccc2ccccc12	-0.5%	-5.7%	1.5	-24.3%
Nc1nc(N2CCN(C/C=C/c3ccccc3)CC2)nc2ccccc12	1.2%	-3.0%	-9.6	8.8%
CCc1ccc(C2CC(c3ccc(F)cc3)Nc3nc(N)nn32)cc1 (stereo not given)	-1.8%	-4.6%	1.9	-6.6%
O=C(NCCF)C1Nc2ccc(OC(F)(F)F)cc2C2C=CCC12 (stereo not given)	-7.3%	x	x	-2.0%
CC(C)(C)OC(=O)N1CCC(c2cc(=O)n3[nH]cc(C(=O)NC4CCCC4)c3n2)CC1	-0.7%	-1.7%	-11.9	-0.3%
Cn1c(CC(=O)Nc2ccccc2Cl)nnc1SCC(=O)NC1=NCCS1	0.3%	5.7%	x	-0.6%
COc1cc(OC)cc(-c2nc3ccccc3s2)c1	-2.6%	-44.6%	-19.6	2.0%
CSc1nc(N)nc2c1ncn2CC(=O)N1CCN(c2ccccn2)CC1	-2.1%	x	x	39.3%
O=C(NCc1ccc(F)cc1)C1CCN(c2cnccn2)CC1	1.7%	3.7%	-0.1	-7.4%
CCOC(=O)C1CCN(S(=O)(=O)c2cc(Br)cc3c2N(C(=O)C2CC2)CC3)CC1	0.6%	-1.8%	-12.0	0.1%
O=C(CCCc1ccccc1)NCc1cn2ccsc2n1	-0.4%	-11.3%	-6.6	12.4%
COc1cc(/C=N/NC(=O)c2ccc([N+](=O)[O-])cc2Cl)cc(Br)c1O	-0.2%	-5.7%	-14.4	9.8%
O=C(CSc1nc(-c2ccco2)cc(C(F)(F)F)n1)N1CCN(Cc2ccccc2)CC1	-1.4%	0.1%	-14.5	29.4%
Oc1ccc(N=C/C=C/c2ccc(Br)cc2)cc1-c1nc2ccccc2s1	x	-56.4%	0.3	x
Cc1ccc(-c2cc(C(=O)N3CCN(c4ccccc4O)CC3)c3ccccc3n2)cc1	-0.1%	x	x	11.6%
COc1cc(/C=C(/C#N)C(=O)Nc2cc(C(F)(F)F)ccc2Cl)ccc1OCC(=O)Nc1cccc(C(F)(F)F)c1	u	x	x	-27.7%
COCCNC(=O)CN(C(=O)CCC(=O)Nc1ccccn1)c1ccc(OC)cc1	0.6%	1.0%	x	-11.8%
COC(=O)C1=C(C)n2nnnc2NC1c1ccc(Cl)cc1 (stereo not given)	0.5%	-6.8%	10.4	-2.1%
Cc1ccccc1N(C=O)c1ccccc1C	0.4%	x	x	11.0%
Cn1c(Cn2c(=O)sc3ccccc32)nnc1SCC(=O)NC1CCCC1	4.1%	-1.4%	1.6	10.6%

As a working copy, some entries already given.
SMILES	Rango complex inh	miR-21 reporter	GLA inh pH 4.5	Rango dissoc inh
Cc1ccc(C)c(S(=O)(=O)n2cnc3ccccc32)c1	-3.4%	-2.3%	1.3	0.7%
CCOC(=O)c1cnc(-c2ccccc2)nc1Oc1ccc(Cl)cc1	1.7%	-1.1%	-5.2	-0.2%
CC(C)C(=O)NCC(c1ccc2c(c1)OCO2)N1CCOCC1 (stereo not given)	-2.6%	-2.8%	x	6.9%
CC1(C)CC(=O)C(C=NCCN2CCN(C(=S)NC3CCCCC3)CC2)=C(O)C1	-0.6%	0.1%	-9.2	-6.6%

Molecules from the list above with bromine:
SMILES	Rango complex inh	miR-21 reporter	GLA inh pH 4.5	Rango dissoc inh
CCOC(=O)C1CCN(S(=O)(=O)c2cc(Br)cc3c2N(C(=O)C2CC2)CC3)CC1	0.6%	-1.8%	-12.0	0.1%
COc1cc(/C=N/NC(=O)c2ccc([N+](=O)[O-])cc2Cl)cc(Br)c1O	-0.2%	-5.7%	-14.4	9.8%
Oc1ccc(N=C/C=C/c2ccc(Br)cc2)cc1-c1nc2ccccc2s1	x	-56.4%	0.3	x

Going on with the list:
SMILES	Rango complex inh	miR-21 reporter	GLA inh pH 4.5	Rango dissoc inh
Nc1scn[n+]1Cc1cccc2cccnc12	-0.7%	0.7%	9.2	0.1%
Cc1cc(C)c(NC(=S)NC(=O)c2ccc(-c3ccccc3)cc2)c(C)c1	-10.3%	-1.6%	-9.3	0.4%
CCOc1cc(C(=O)N2CCN=C2SC)cc(OCC)c1OCC	4.2%	-12.0%	-27.7	14.0%
Cn1cccc1-c1nc2ccccc2[nH]1	-0.1%	-35.8%	2.1	-10.7%
CCn1cc(CNC(=S)Nc2cccc(Cl)c2C)cn1	2.5%	-0.6%	0.7	-22.8%
COc1ccc(-c2c/c(=N\c3nc(-c4ccccc4)c(C)s3)c3ccccc3o2)cc1O	3.6%	23.8%	2.5	11.8%
Cn1c(=O)[nH]c(=O)c2c1[nH]c(=S)n2Cc1ccccc1	1.3%	-1.6%	x	-5.6%
O=C(CSc1nc2ccccc2nc1N1CCCCC1)Nc1ccc(F)cc1	-3.0%	-6.6%	x	7.5%
CC[C@]1(C(=O)OC)[C@H]2C(=O)N(C)C(=O)[C@H]2[C@H]2CN=C(SCC3CC3)N21	-0.2%	x	x	5.8%
COC(=O)c1cncc(C)c1	-3.4%	0.8%	3.9	-15.5%
COc1cc(/C=N/Nc2nc(N3CCCC3)nc(N3CCCC3)n2)ccc1OCc1ccccc1F	2.1%	-5.2%	-12.9	25.6%
N#CCCn1cc(C(=O)Nc2ccccc2Br)c(-c2cc3ccccc3o2)n1	-0.4%	2.6%	6.1	0.7%
O=C1CCCN1CCCNCCCn1cnc2c(OCc3ccccc3)ncnc21	0.8%	x	x	1.6%
COc1ccc(NC(=O)C2=NN(C3CCS(=O)(=O)C3)C(=O)CC2)cn1 (stereo not given)	-2.1%	2.0%	3.8	4.1%
COc1ccc(OC)c(NC(=O)CSc2nn3c(=O)c(C)nnc3s2)c1	-2.1%	5.8%	x	29.1%
CN(C)CC#CCC(O)(c1ccccc1)c1ccccc1	-2.6%	0.6%	-3.0	4.6%
COc1ccc(C2=Nn3c(nnc3-c3cccnc3)SC2)cc1OC	1.5%	-18.6%	9.3	5.0%
CC(C)CNC(=O)C1CCN(c2ccc(S(=O)(=O)N3CCOCC3)cc2Cl)CC1	5.9%	3.6%	-5.8	29.2%
CSc1ccccc1C(=O)NCc1ccc(C)cc1	-0.4%	-17.3%	5.6	-5.1%
Cc1ccc2nc(C3CCN(S(=O)(=O)c4ccc5ccccc5c4)CC3)[nH]c2c1	-0.6%	u	-8.7	5.3%
Nc1nc(SCc2nc(-c3ccccc3)no2)[nH]c(=O)c1-c1ccccc1	-1.5%	-3.8%	1.1	7.4%
COc1ccccc1CN1CCCCC1C(=O)O (stereo not given)	0.9%	-2.1%	1.7	0.3%
COc1ccccc1C(=O)NC(CCSC)C(=O)NCCCSc1ccccc1 (stereo not given)	2.3%	x	x	0.5%
C=CCOC(=O)C1=C(C)N=c2s/c(=C3\C(=O)N(CC(=O)O)c4ccccc43)c(=O)n2C1c1ccc(OC)cc1 (stereo not given)	-5.9%	-0.3%	-11.6	-15.7%
O=C(N1CCOCC1)N1CCc2ccccc21	0.0%	2.7%	x	-0.4%

The listing continues:
SMILES	Rango complex inh	miR-21 reporter	GLA inh pH 4.5	Rango dissoc inh
COc1cc2c(cc1NC(=O)COC(=O)[C@@H](NC(=O)c1ccccc1F)C(C)C)oc1ccccc12	-1.5%	-23.8%	3.1	-13.5%
CNS(=O)(=O)c1cccc(C(=O)OCC(=O)Nc2ccc(OC)cc2[N+](=O)[O-])c1	-1.6%	-1.7%	-5.1	0.0%
C=C(C)Cn1c(N(CCO)Cc2ccccc2)nc2c1c(=O)[nH]c(=O)n2C	-1.5%	-28.3%	7.6	27.7%
COc1ccc(C2CC2/C(C)=N/OC(=O)c2ccc(F)cc2)cc1 (stereo not given)	0.2%	-9.1%	-1.5	0.4%
CCC(C)OC(=O)c1cc(C)nc2c(Br)cc(Br)cc12 (stereo not given)	0.7%	-1.9%	-6.2	20.3%
COc1cc(/C=N/n2c(C)n[nH]c2=S)ccc1OCc1ccccc1	-0.8%	-70.6%	4.7	-9.6%
O=C(NCCCN1CCN(Cc2ccccc2Cl)CC1)Nc1ccccc1	6.6%	-5.2%	-1.4	2.7%
COCCCNC(=S)N1CCN(c2nc(-c3ccccc3)cs2)CC1	0.3%	15.9%	x	0.9%
O=C(CCc1nc2ccccc2s1)OCC(=O)N1CCN(C(=O)c2ccco2)CC1	0.4%	-0.7%	-10.6	-4.2%
O=C(OCCN=C1NS(=O)(=O)c2ccccc21)c1ccccc1	-0.6%	0.3%	7.7	15.3%
O=C(Nc1ccc([N+](=O)[O-])cc1)/C(=C/c1cccc([N+](=O)[O-])c1)NC(=O)C1CCCCC1	1.3%	-0.1%	3.1	-4.3%
Cc1cccc2cc(CN(CCN(C)C)C(=S)NCc3ccco3)c(=O)[nH]c12	-0.6%	-3.9%	-25.0	8.0%
N#Cc1ccsc1NC(=O)CN1CCN(S(=O)(=O)c2ccccc2C(F)(F)F)CC1	2.2%	-4.8%	0.6	6.8%
CCOC(=O)c1cc(-c2ccco2)nc2c1c(C)nn2-c1cccc(Cl)c1	-0.4%	-2.6%	-19.9	-4.1%
Cc1cccc(-n2c(=S)[nH]c3nc4c(cc3c2=O)COC(C)(C)C4)c1	1.6%	0.3%	-5.2	-1.2%
Cc1ccc(NC(=O)CSc2ncccn2)cc1S(=O)(=O)N1CCOCC1	0.6%	x	x	-8.2%
CC(NC(=O)CN1C(=O)NC2(CCCC2)C1=O)c1ccc(Cl)cc1Cl (stereo not given)	1.3%	x	x	-3.8%
COc1cc(C2C(C#N)=C(N)Oc3cc(C)n(CCN4CCOCC4)c(=O)c32)cc(OC)c1OC (stereo not given)	-1.4%	-36.7%	x	10.7%
COc1ccc(-n2nc(C(=O)NCc3ccco3)c3ccccc3c2=O)cc1	-0.7%	-1.8%	2.1	20.1%
O=C(Nc1c(Cl)cc(Cl)cc1C(=O)NCC1CCCO1)c1ccco1 (stereo not given)	u	-0.8%	2.5	u
Cc1cccc(/C=N/NC(=O)CN2CCCCCCC2)c1	2.3%	-3.1%	-0.4	3.7%
NC(=O)c1c(NC(=O)C2c3ccccc3Oc3ccccc32)sc2c1CCCCC2	u	-1.8%	2.6	-19.8%

An excerpt from above in order of count of non-hydrogen atoms, smallest number first.
SMILES	Rango complex inh	miR-21 reporter	GLA inh pH 4.5	Rango dissoc inh
COc1ccc(C2CC2/C(C)=N/OC(=O)c2ccc(F)cc2)cc1 (stereo not given)	0.2%	-9.1%	-1.5	0.4%
O=C(Nc1c(Cl)cc(Cl)cc1C(=O)NCC1CCCO1)c1ccco1 (stereo not given)	u	-0.8%	2.5	u
O=C(NCCCN1CCN(Cc2ccccc2Cl)CC1)Nc1ccccc1	6.6%	-5.2%	-1.4	2.7%
COc1ccc(-n2nc(C(=O)NCc3ccco3)c3ccccc3c2=O)cc1	-0.7%	-1.8%	2.1	20.1%
N#Cc1ccsc1NC(=O)CN1CCN(S(=O)(=O)c2ccccc2C(F)(F)F)CC1	2.2%	-4.8%	0.6	6.8%
COc1cc(C2C(C#N)=C(N)Oc3cc(C)n(CCN4CCOCC4)c(=O)c32)cc(OC)c1OC (stereo not given)	-1.4%	-36.7%	x	10.7%
